From PubChem
miR-21 FLuc = raises the signal of a miR-21 reporter. HeLa miR-21 FLuc reporter, luciferase, 48 h. Potency, µM (doses to about 38.3 µM), for the others: top-dose reporter change, positive = more light. 340,000 tested, under 10 active. AID 2288; active = well fitted rising curve with a large enough effect; inconclusive = small, poorly fitted or top-dose-only effect; inactive = no such curve, though single readings can be large or run the other way;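 further: % of control where 0% means no effect; miR-21 action dims this reporter so a rising signal means less miR-21 action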
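HeLa cells stably expressing CMV-driven firefly luciferase with a downstream miR-21 binding sequence, endogenously expressing miR-21, were treated with titrations (up to about 40uM final) for 48 hours at 37 degree Celsius. Luciferase luminescence was read after lysis.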
GLA inh pH 4.5 = inhibitors of human alpha-galactosidase A at pH 4.5; P06280; purified enzyme, 4-MU-alpha-Gal fluorescence, pH 4.5; activity change, negative = inhibition, % at 105 µM; 230,000 tested, under 10 active; inconclusive = small, poorly fitted or top-dose-only inhibition, or a rising curve; inactive = flat fitted curve, though single readings scatter; no compound was filed as active;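 further: 0% = full activity with enzyme and -100% = basal without enzyme; dose as in the result columns while the protocol names 77 µM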
Target sequence (P06280 whole entry, looked up): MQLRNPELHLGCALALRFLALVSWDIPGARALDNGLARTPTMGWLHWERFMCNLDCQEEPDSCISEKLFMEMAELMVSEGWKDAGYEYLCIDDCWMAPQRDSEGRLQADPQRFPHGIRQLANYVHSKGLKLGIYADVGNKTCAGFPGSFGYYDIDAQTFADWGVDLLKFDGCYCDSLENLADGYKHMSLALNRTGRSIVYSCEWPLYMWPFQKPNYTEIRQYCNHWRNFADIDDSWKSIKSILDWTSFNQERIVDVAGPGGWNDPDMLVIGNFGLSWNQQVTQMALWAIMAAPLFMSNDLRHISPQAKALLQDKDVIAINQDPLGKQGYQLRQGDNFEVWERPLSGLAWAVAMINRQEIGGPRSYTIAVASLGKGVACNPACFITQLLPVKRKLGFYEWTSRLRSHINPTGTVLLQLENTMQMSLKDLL
Rango dissoc inh = prevents RanGTP from dissociating the Rango-importin beta complex; Potency, µM (titrated, usually from 46.1 µM), without a hit: top-dose activity change, negative = inhibition; Biochemical FRET Rango-importin beta, RanGTP-induced dissociation; 0.071% of 340,000 active; O95149+P62826; AID 540253; active means falling FRET ratio curve, often poorly fitted, with flat reads before Ran was added; inconclusive means other falling curves, or compound fluorescence or quenching; inactive means flat or rising ratio curve;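 further: potency means the concentration at half of the fitted maximal effect; % of control where 0% means no effect; nearly all actives have a fitted effect of over 45% in size; -100% = wells without RanGTP and RCC1; the record marks most hits as doubtful in a second field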
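Compounds sat 5 min at room temperature with 0.1 uM Rango biosensor plus 0.25 uM importin beta, then FRET pre-read. RanGTP-RCC1 (0.6 uM Ran, 2mM GTP, 0.2 uM RCC1) added for 45 min, and the CFP/YFP post-read measured blocked complex dissociation.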
Rango complex inh = prevents formation of the Rango-importin beta complex. Q14974. Rango CFP/YFP FRET sensor + importin beta, 45 min. Potency, µM (titrated, usually from 92.2 µM), for the others: at the highest dose inhibition of complex formation. 0.031% of 340,000 active. AID 540263; active = rising FRET ratio curve, often small or poorly fitted; inconclusive = mostly compound fluorescence or quenching in the first reads; inactive = flat curves in all reads;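 further: potency means the concentration at half of the fitted maximal effect; 0% = DMSO wells and 100% = buffer wells lacking importin beta; nearly all actives have a fitted effect of over 15% in size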
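FRET biosensor Rango (snurportin 1 IBB between N-terminal EYFP and C-terminal Cerulean), 50 nM in PBS/1 mM DTT/0.02% Tween-20/0.1% BSA, preincubated 5 min RT with compound; 0.125 microM importin beta added, 45 min RT, CFP/YFP FRET ratio read.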
* marks the source's active call; other numbers are inactive results; ? = inconclusive; . = no result given; [ ] = remark or other dose. Some of the compounds tested; count on the stated rates, not on these rows.

SMILES	miR-21 FLuc	GLA inh pH 4.5	Rango dissoc inh	Rango complex inh
Oc1ccc(C2=NNC(c3ccc(O)cc3)=NN2)cc1	-6%	.	3%	1.3%
CC1CC(C)CN(CCCNS(=O)(=O)c2ccc3c(c2)oc(=O)n3C)C1 (stereo not given)	-16%	.	-3%	6.0%
Nn1c(SCc2cccc(Oc3ccccc3)c2)nnc1C(F)(F)F	-21%	-12	-2%	-3.8%
Cn1c(CN2CCCCC2)nc2cc(NS(=O)(=O)c3ccc(F)cc3)ccc21	10%	0	3%	1.4%
Cc1cccc(NC(=O)c2sc3nc4c(c(-c5cccs5)c3c2N)CN(C)CC4)c1	-16%	-6	?	?
O=c1nc2cccc3c2=c(/c1=C(\O)c1ccccc1)c1ccccc1c3=O	-8%	-2	-5%	-3.0%
CC(C)CN1CC(Br)C(=O)NC1=O (stereo not given)	.	.	-11%	3.5%
Cc1ccccc1OCCn1c(=S)[nH]c2ccccc21	5%	.	1%	5.8%
CCOC(=O)C1(CCOc2ccccc2)CCN(Cc2ccc(OCC)c(CO)c2)CC1	.	.	6%	0.0%
CCOc1ccc(NCc2nnc(SCc3ccccc3Cl)n2-c2ccccc2)cc1	8%	-19	-2%	-2.0%
CCCCn1c(N)c(N(CC(C)C)C(=O)c2oc3ccc(OC)cc3c2C)c(=O)[nH]c1=O	.	.	-8%	?
CCOC(=O)Cn1ncn(-c2ccc(OC(F)(F)F)cc2)c1=O	-3%	0	-7%	-1.1%
C/C(=N\NC(=O)c1c(C)nc2ccccn12)c1ccccc1F	-7%	.	-4%	-5.5%
COCCNC(=O)c1ccc2c(=O)n(Cc3ccco3)c(SCC(=O)NC3CCCCC3)nc2c1	6%	-4	6%	-0.3%
Cc1ccc(C(=O)/C=C/c2ccc(-c3ccccc3[N+](=O)[O-])o2)cc1	-2%	-1	-15%	-2.9%
Cc1nc2c(c(=O)n1CCC1=CCCCC1)c1nc3ccccc3nc1n2/N=C/c1ccco1	-7%	-1	-25%	?
C=CCn1c(SC(C)C(=O)NC2(C#N)CCCCC2)nnc1-c1ccc(OC)cc1 (stereo not given)	-1%	-1	-9%	2.9%
CCCN(CC(=O)Nc1ccccc1C)C(=O)CC(NC(=O)c1ccccc1)c1ccccc1 (stereo not given)	.	.	-17%	-1.9%
CCc1nc(N)c(C#N)c(-c2ccc(O)c(OC)c2)c1C	-30%	6	0%	-1.1%
Cc1ccc(S(=O)(=O)N(C)c2ccc(C(=O)Nc3cccnc3)cc2)cc1	11%	.	1%	-1.3%
Cc1ccc(S(=O)(=O)N(C)Cc2ccc(C(=O)N/N=C3\CC(=O)CC(C)(C)C3)cc2)cc1	-1%	1	-6%	1.6%
CCOC(=O)CSc1nnc2c3ccccc3n(CC)c2n1	-4%	.	-14%	0.5%
COc1ccc(CCNC2CC(C)N(C)CC2C)cc1OC (stereo not given)	-5%	-8	?	?
NS(=O)(=O)c1ccc(NC(=O)CN2CCN(S(=O)(=O)/C=C/c3ccccc3)CC2)cc1	-2%	-5	46%	2.3%
CCN(C(=O)COC(=O)CCC(=O)c1ccc(Cl)cc1)c1c(N)n(Cc2ccccc2)c(=O)[nH]c1=O	.	.	1%	-0.1%

No new results follow: entries from further up.
SMILES	miR-21 FLuc	GLA inh pH 4.5	Rango dissoc inh	Rango complex inh
CC1CC(C)CN(CCCNS(=O)(=O)c2ccc3c(c2)oc(=O)n3C)C1 (stereo not given)	-16%	.	-3%	6.0%
Nn1c(SCc2cccc(Oc3ccccc3)c2)nnc1C(F)(F)F	-21%	-12	-2%	-3.8%
Cn1c(CN2CCCCC2)nc2cc(NS(=O)(=O)c3ccc(F)cc3)ccc21	10%	0	3%	1.4%
Cc1cccc(NC(=O)c2sc3nc4c(c(-c5cccs5)c3c2N)CN(C)CC4)c1	-16%	-6	?	?
O=c1nc2cccc3c2=c(/c1=C(\O)c1ccccc1)c1ccccc1c3=O	-8%	-2	-5%	-3.0%

The listing continues.
SMILES	miR-21 FLuc	GLA inh pH 4.5	Rango dissoc inh	Rango complex inh
C[C@@H]1CC=C[C@H]2[C@H]1C(=O)N(Cc1ccccc1)[C@H]2c1ccc(F)c(Br)c1	?	3	.	.
O=C(O)CCN1C(=O)c2ccc(NC(=O)CSc3ccc(Cl)cc3)cc2C1=O	-3%	.	12%	1.3%
Cc1ccc(S(=O)(=O)c2ccccc2)cc1S	0%	-3[21.1 µM]	.	.
CCN(CC(=O)Nc1ccc(NC(C)=O)cc1)C(=O)c1oc2c(ccc3ccccc32)c1C	.	.	2%	3.8%
Cc1[nH]c(=O)[nH]c1C(=O)CCCCC(=O)O	-10%	-11	-2%	3.8%
CCCc1nnc2n1N=C(c1ccc(C)cc1)CS2	1%	.	1%	-0.2%
CN(C)CCCNc1nc(-c2ccccc2)c2c(c1C#N)CC(C)(C)OC2	-2%	3	4%	-2.0%
CCn1c(CSc2nc3ccccc3s2)nnc1SCC(=O)OC(C)(C)C	0%	0	-4%	-1.4%
Cc1ccc(NC(=S)NC(C)(C)C)c([N+](=O)[O-])c1	-34%	4	15%	4.0%
COc1cc(N)c(Cl)cc1C(=O)OCC(=O)NCc1cccs1	.	.	1%	-3.2%
Cn1c(COc2ccccc2)nnc1SCC(=O)Nc1ccc2c(c1)OCO2	-12%	-6	0%	0.3%
CC(=O)Nc1ccc(NC(=O)C(C)OC(=O)c2ccc3ccccc3n2)cc1 (stereo not given)	.	.	2%	-0.2%
CC(C)CN(C(=O)COC(=O)c1ccc([N+](=O)[O-])s1)c1c(N)n(Cc2ccccc2)c(=O)[nH]c1=O	.	.	-8%	2.1%
COc1ccc(/C=C2\SC(=O)N(CCNC(=O)Cc3coc4cc(C)ccc34)C2=O)cc1OC	7%	-8	-4%	2.6%
Cc1ccc(S(=O)(=O)N2CCN(C(=O)CN3C(=O)NC(C)(c4ccc(Cl)cc4)C3=O)CC2)c(C)c1 (stereo not given)	.	.	-15%	-4.0%
COc1cccc(NC(=O)C2CCN(S(C)(=O)=O)CC2)c1	0%	-3	-18%	-3.6%
CC(C)N1CCc2c(sc(NC(=S)NC(=O)c3ccccc3)c2C#N)C1	-46%	-21	?	0.2%
CCOc1ccc2oc(=O)cc(CN3CCN(Cc4ccccc4)CC3)c2c1	1%	.	-11%	1.2%
CCCOc1ccc(S(=O)(=O)N2CCN(C)CC2)c2ccccc12	12%	.	1%	-0.2%
CCNC(=S)NC1CC2CCCC(C1)N2CCc1ccccc1 (stereo not given)	-6%	.	-2%	2.0%
Nc1ncc(N=Nc2cc(C(=O)O)ccc2Cl)s1	0%	9	-13%	-1.1%
COc1ccccc1OCc1ccc(C(=O)NC2CCCCC2)o1	-5%	.	0%	-0.5%
Cc1ccc(OCC(=O)O/N=C(\N)c2cccc([N+](=O)[O-])c2)cc1C	-3%	-7	8%	-3.6%
CCOc1ccc(S(=O)(=O)Nc2ccc(C(=O)N(C)CC(=O)Nc3ccc(OC)cc3)cc2)cc1	.	.	1%	1.4%
CCn1c(COc2ccc(C(C)C)cc2)nnc1SCC(=O)Nc1nccs1	-2%	11	2%	0.0%

Profiles, quoted from the list:
CCNC(=S)NC1CC2CCCC(C1)N2CCc1ccccc1 (stereo not given) reads miR-21 FLuc = -6%; GLA inh pH 4.5 = .; Rango dissoc inh = -2%; Rango complex inh = 2.0%
Cc1ccc(OCC(=O)O/N=C(\N)c2cccc([N+](=O)[O-])c2)cc1C reads miR-21 FLuc = -3%; GLA inh pH 4.5 = -7; Rango dissoc inh = 8%; Rango complex inh = -3.6%

(further entries)
SMILES	miR-21 FLuc	GLA inh pH 4.5	Rango dissoc inh	Rango complex inh
COC(=O)c1cc(NC2c3ccccc3C(=O)N2c2cccnc2)cc(C(=O)OC)c1 (stereo not given)	-11%	1	-16%	1.4%
Cc1ccc(S(=O)(=O)N(C)c2ccc(OCC(=O)Nc3nc(-c4ccccc4)cs3)cc2)cc1	-7%	1	20%	1.5%
O=C(NNC(=O)c1ccccc1O)c1ccco1	-41%	11	12%	0.3%
CCN(C(=O)COC(=O)/C=C/c1cccc([N+](=O)[O-])c1)c1c(N)n(Cc2ccccc2)c(=O)[nH]c1=O	.	.	8%	2.2%
Cc1cc(NC(=O)Cn2cnc3c(cnn3C(C)(C)C)c2=O)no1	-12%	0	-2%	0.3%
Cc1cc(NC(=O)C(C)Oc2ccc(C(C)(C)C)cc2)no1 (stereo not given)	-3%	.	4%	6.7%
Cc1ccccc1NC(=O)CC(=O)c1ccccc1	-29%	.	0%	-2.2%
C=CCn1c(SCC(=O)O)nnc1-c1cccc(Cl)c1	1%	-4	?	-1.1%
CC(=O)Nc1ccc(NC(=O)C2CCCN2C(=O)Nc2ccc(F)c([N+](=O)[O-])c2)cc1 (stereo not given)	0%	11	5%	3.2%
O=c1c2ccccc2nc(/C=C/c2ccc(Cl)cc2)n1CCO	0%	.	?	?
CCOc1ccccc1NC(=O)c1cc(C(=O)Nc2ccccc2OCC)cc(N2C(=O)CCC2=O)c1	-1%	4	-19%	-0.6%
CCOc1ccc(C)cc1S(=O)(=O)NC1CCCCCC1	-16%	.	?	2.5%
CN(C)c1ccc(NC(=O)CSc2n[nH]c(-c3ccncc3)n2)cc1	.	.	0%	-1.1%
Cc1nc2ccccc2c(=O)n1N	-2%	.	-4%	1.8%
O=C(Nc1cc(C(F)(F)F)ccc1-n1cncn1)c1ccc([N+](=O)[O-])o1	.	.	-15%	-4.1%
N#Cc1ccccc1S(=O)(=O)N1CCN(C(=O)[C@H](Cc2ccccc2)NC(=O)c2ccco2)CC1	.	.	6%	-0.1%
COc1ccc(NC(=O)Cc2c(C(=O)O)n(C)c3ccccc23)cc1OC	-1%	-4	19%	1.5%
CCOC(=O)C1CCN(C(=O)c2cccnc2)CC1	-2%	-3	-15%	?
Cc1cc(=O)oc(C)c1C(=O)N[C@@H]1CCCCNC1=O	0%	-8	-5%	-1.1%
COc1ccc(CN(C(=O)CSc2nnc(-c3ccccc3C)o2)c2ccc(F)cc2)cc1	-1%	-10	-5%	-1.2%
CNCc1ccccc1Sc1ccc(OC)c(OC)c1	-3%	-3	-4%	-2.3%
O=c1oc2c(CN3CCOCC3)c(O)c(Cl)cc2c2c1CCC2	-2%	?	.	.
Cc1nc(-c2ccccn2)nc(N(C)c2ccccc2)c1Cl	20%	.	0%	0.1%
CCOC(=O)C1(Cc2cccc(OC)c2)CCN(Cc2csc(C(C)=O)c2)CC1	10%	4	22%	0.2%
Brc1cccc(CNCC2CCCO2)c1 (stereo not given)	-3%	.	10%	-1.5%
(next part)
SMILES	miR-21 FLuc	GLA inh pH 4.5	Rango dissoc inh	Rango complex inh
O=C(O)c1ccc2c3c(ncnc13)-c1ccccc1C2=O	-9%	0	0%	0.4%
CC1=CC(c2ccc(Cl)cc2)n2nc(NC(=O)CCC(=O)O)nc2N1 (stereo not given)	2%	19	?	?
S=C(Nc1ccccc1)N1N=C(c2cccs2)CC1c1cccs1 (stereo not given)	0%	-7	-29%	-2.0%
Cc1ccc(O)c(-c2[nH]ncc2C(=O)c2ccc(Cl)cc2)c1	1%	.	11%	1.0%
O=C(O)c1ccc2nc3c(nc2c1)-c1ccccc1C3=O	-15%	3	1%	-3.0%
Nc1c(C(=O)c2ccccc2O)cnn1-c1ccc(S(=O)(=O)N2CCOCC2)cc1[N+](=O)[O-]	-3%	5	.	.
O=C(NC1CCCCC1)c1ccc(-c2ccccc2[N+](=O)[O-])o1	-72%	.	3%	-1.1%
CCOC(=O)c1c(NC(=O)C(C)N2CCN(S(=O)(=O)c3cccs3)CC2)sc2c1CCC(C)C2 (stereo not given)	1%	1	0%	-1.2%
CN1CCC(NC(=S)Nc2cccc([N+](=O)[O-])c2)CC1	1%	-11	1%	-1.1%
COc1ccc(NC(=O)C2CCCN(S(=O)(=O)c3c(C)n[nH]c3C)C2)cc1 (stereo not given)	-2%	-10	0%	2.1%
CN(C(=O)CN1C(=O)c2cc(Cl)c(Cl)cc2C1=O)C1CCS(=O)(=O)C1 (stereo not given)	.	.	-31%	-0.8%
